# VDR inh: inhibitors of human vitamin D receptor | Potency, µM, for inactives: max response, negative = inhibition, hits mostly inhibitors | VDR-SRC2-3 peptide fluorescence polarization, 2 h | P11473 | hit rate 0.93% among 400,000; active = well fitted inhibition curve with a large enough effect; inconclusive = small, poorly fitted or top-dose-only effect, or another doubt; inactive = no such curve, though single readings can be large or run the other way; note: series mostly up to about 120 µM
# Target sequence (P11473 whole entry, looked up): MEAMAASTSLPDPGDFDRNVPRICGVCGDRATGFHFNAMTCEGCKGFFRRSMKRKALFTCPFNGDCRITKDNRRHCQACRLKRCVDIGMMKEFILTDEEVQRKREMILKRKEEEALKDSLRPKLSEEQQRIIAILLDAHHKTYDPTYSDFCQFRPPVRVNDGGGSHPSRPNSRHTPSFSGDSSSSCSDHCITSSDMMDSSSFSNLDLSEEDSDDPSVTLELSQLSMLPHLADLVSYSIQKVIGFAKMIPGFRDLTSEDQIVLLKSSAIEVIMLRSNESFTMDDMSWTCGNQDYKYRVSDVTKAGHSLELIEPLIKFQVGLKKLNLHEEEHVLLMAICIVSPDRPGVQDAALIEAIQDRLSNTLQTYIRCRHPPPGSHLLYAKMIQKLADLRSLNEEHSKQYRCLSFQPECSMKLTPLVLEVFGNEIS
#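 Signal is fluorescence polarization, reporting how far test compounds block the interaction of VDR with the SRC2-3 coregulator peptide after a 2 h room-temperature incubation.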
# Active calls of the source: *; ? = inconclusive; & = joins results of further samples; [ ] = dose if it differs, or a comment. % is set by controls: 0 for no effect and ±100 for the full control effect; potency is the fitted concentration of half-maximal effect. Some of the compounds tested; the hit share may differ from the screen's.
SMILES,VDR inh
Cn1c(=O)c2c(nc(OCC3COC(C)(C)O3)n2Cc2ccccc2F)n(C)c1=O (centres undefined),18%
Oc1ccc(/C=C/c2ccnc3ccccc23)cc1,-16%
O=C(Cc1ccccc1)Nc1ccc(NC(=O)c2cccs2)cc1Cl,33%[activator]
Cc1cc(C)c2c(=O)[nH]c(SCc3ccccc3C)nc2n1,7%
CCn1cc(C(=O)N2CCN(c3cc(C)ccc3C)CC2)c(=O)c2cc(S(=O)(=O)N3CCOCC3)ccc21,-3%
O=S(=O)(c1ccccc1Oc1ccc(Cl)cc1Cl)N1CCCCC1,4%
Cc1c(C(=O)Nc2nccs2)oc2ccc(Br)cc12,-4%
COc1ccc(Nc2c(-c3ccsc3)nc3nc(C)cc(C)n23)cc1,-5%
COc1ccc(OC)c(/C=N\NC(=O)c2ccc(-c3ccccc3)cc2)c1,15%
CC1=C(C(=O)Nc2ccccc2C)C2(CCCCC2)C(C(N)=O)C(=S)N1 (centres undefined),18%
COc1ccccc1CNC(=O)[C@@H](NC(=O)C1CCN(C(=O)[C@@H]2CCCN2C(=O)OC(C)(C)C)CC1)C(C)C,2%
C/C(NCC(C)(C)CN(C)C)=C(/C#N)C(=O)NCc1ccccc1,11%

# Arranged by value in VDR inh (falling): five of the compounds above.
canonical_smiles | VDR inh
CC1=C(C(=O)Nc2ccccc2C)C2(CCCCC2)C(C(N)=O)C(=S)N1 (centres undefined) | 18%
COc1ccc(OC)c(/C=N\NC(=O)c2ccc(-c3ccccc3)cc2)c1 | 15%
C/C(NCC(C)(C)CN(C)C)=C(/C#N)C(=O)NCc1ccccc1 | 11%
Cc1c(C(=O)Nc2nccs2)oc2ccc(Br)cc12 | -4%
COc1ccc(Nc2c(-c3ccsc3)nc3nc(C)cc(C)n23)cc1 | -5%

# The list continues.
SMILES,VDR inh
CCc1ccc(S(=O)(=O)Nc2cccc(-c3ccc4nncn4n3)c2)s1,-7%
COc1ccccc1C(CNC(=O)c1oc2ccccc2c1C)N1CCCC1 (centres undefined),5%
CC(=O)N1CCN(Cc2nc3cc(NC(=O)c4cccc(Br)c4)ccc3n2C)CC1,3%
Cc1ccc(Sc2oc(/C=N/n3cnnc3)cc2Br)cc1,10%
c1ccc(-c2ccc(CN3C[C@@H]4C(c5ccccc5)C5(c6cccnc6)CC4(C5)[C@H]3c3ccccc3)cc2)cc1 (some centres undefined),-8%
Cc1ccc(CCNCc2c(C(=O)O)c(C)n(-c3ccccc3)c2C)cc1,112%[activator]
O=S(=O)(c1ccc(F)cc1)c1nc(-c2ccco2)oc1Nc1ccccc1,5%
COc1ccc(NC2CCCN(C(=O)c3ccc(C(C)=O)s3)C2)cc1 (centres undefined),17%
CC(C)(O)C(O)COc1c2ccoc2cc2oc(=O)ccc12 (centres undefined),-14%
CCn1c(O)c(C=NCc2ccccc2)sc1=S,-24%
O=C(Nc1ccc(O)c2c(=O)cc(-c3ccccc3Cl)oc12)c1ccc(F)cc1,-20%&5%
Cc1cccc(OCCn2c(=O)sc3ccccc32)c1,-16%
CC(C)c1ccccc1NC(=O)c1cccnc1,-2%
Cc1ccc(N(CC(=O)NCc2ccccc2)S(=O)(=O)c2c(C)noc2C)cc1,-4%
CC(=O)Nc1ccc(NC(=O)c2ccc(N(Cc3ccccc3C)S(C)(=O)=O)cc2)cc1,-4%
Cc1ccc(C(C(=O)NC2CCCC2)N(Cc2ccc3c(c2)OCO3)C(=O)c2snc(C(N)=O)c2N)cc1 (centres undefined),9%
CC(Sc1nc2ccccc2s1)C(=O)N1CCOCC1 (centres undefined),1%
COc1ccc(S(=O)(=O)Nc2ccc(NC(C)=O)cc2)cc1Br,-12%
COC(=O)CNC(=O)/C=C/c1ccc(OC)cc1,10%
CC(=O)c1c(C)[nH]c(C(=O)OCC(=O)N2CCCC2=O)c1C,-10%
Cc1ccc(C(C)C)c(O)c1C(=O)O,1%
Cc1ccc(CNC(=S)Nc2ccc(NS(=O)(=O)c3ccc(C)cc3)cc2)cc1,14%
CCC(Sc1nc(=O)cc(N)n1-c1cccc(C)c1)C(=O)Nc1cc(C)on1 (centres undefined),0%
CCOC(=O)c1c(S(=O)(=O)Nc2cccc(Cl)c2)c(C)n(C)c1C,-13%
N#CC1=C(C=Nc2ccccc2O)CCC1,-7%
O=C(CSc1ncn[nH]1)Nc1ccc2c(c1)CCC2,-1%
Cc1ccc(CN2CCCn3nc(C(=O)NCc4cc(C)ccc4C)cc3C2=O)cc1,1%
Cc1cc(Cn2nc(C(=O)NCc3cccc(C(F)(F)F)c3)cc2-c2ccccc2)on1,-8%
CCCCNC(=O)CO/N=C(\C)c1cc2ccccc2o1,-24%
N/C(CCS(=O)(=O)c1ccc(Cl)cc1)=N\OC(=O)c1ccccc1C(F)(F)F,-1%
Cn1c(=O)[nH]c(=O)c2c1nc(SCCO)n2CC(O)COc1ccccc1 (centres undefined),-7%
CC1CC(C)CN(C(=O)c2ccc3c(=O)n(Cc4ccc5c(c4)OCO5)c(=S)[nH]c3c2)C1 (centres undefined),-4%
Cc1cc(OCC(=O)Nc2ccccc2C)no1,5%
O=C(NC1CCCC1)c1cccc2c1C(=O)c1ccc(Cl)cc1S2(=O)=O,-14%
CCCC(=O)NC(c1ccc2c(c1)OCO2)c1cc(Cl)c2cccnc2c1O (centres undefined),-6%
CCOC(=O)c1c(C)[nH]c(CCC(=O)NCc2ccc(OC)cc2OC)c1C,20%
COc1ccccc1/C=C1\SC(=O)N(CCC(=O)N(C)C2CCS(=O)(=O)C2)C1=O (centres undefined),-17%
CCc1ccc(CC(=S)N2CCOCC2)cc1,-9%
CCOC(=O)C1=C(C)NC(=O)NC1c1cn(-c2ccccc2)nc1-c1ccc(OCC)cc1 (centres undefined),-3%
CCOc1ccccc1N1CCN(C(=S)Nc2ccc(S(N)(=O)=O)cc2)CC1,-15%
Cn1nnnc1SCc1ccc(CSc2nnnn2C)cc1,-12%
CN1CCN(C(=O)N2CCNC2=O)CC1,4%
CO/N=C/NC(=O)c1c(OC)ccnc1Oc1ccccc1,29%
COc1cccc(-c2c(C#N)c(N)nc3c2c(C)nn3-c2ccccc2)c1O,16%
Cc1ccc(OCC(=O)N(C)C2CCCCC2)c([N+](=O)[O-])n1,-16%
Cc1ccc2nc(-c3ccc(NC(=O)CSc4nc(N)cc(=O)[nH]4)cc3)sc2c1,-12%
CCN(C(=O)c1ccc(=O)[nH]c1)c1c(N)n(Cc2ccccc2)c(=O)[nH]c1=O,-15%
CC1CC(C)CN(CCCNC(=O)CN2C(=O)CSc3ccc(S(=O)(=O)N4CCOCC4)cc32)C1 (centres undefined),0%

# Some of the entries above in a different format.
> CCOc1ccccc1N1CCN(C(=S)Nc2ccc(S(N)(=O)=O)cc2)CC1
  VDR inh: -15%
> Cn1nnnc1SCc1ccc(CSc2nnnn2C)cc1
  VDR inh: -12%
> CN1CCN(C(=O)N2CCNC2=O)CC1
  VDR inh: 4%
> CO/N=C/NC(=O)c1c(OC)ccnc1Oc1ccccc1
  VDR inh: 29%

# The listing continues:
SMILES,VDR inh
O=C(OCC(=O)N1CCCC1)c1ccc(OC(F)(F)F)cc1,12%
COc1ccc(-c2noc3c2-c2nc(-c4ccc(Cl)cc4)sc2CC3)cc1,-9%
CCOc1cc(/C=C(\C#N)C(=O)Nc2cccc(C(=O)O)c2)ccc1OCc1ccccc1Cl,?
Cc1ccc(CCNc2ncnc3onc(-c4ccc(Cl)cc4)c23)cc1,10%
O=C(NCC1CCCO1)c1ccc(Oc2ccc([N+](=O)[O-])cc2Cl)cc1 (centres undefined),3%
COc1ccccc1C(=O)NCC(=O)N/N=C/c1ccc2c(c1)OCO2,-3%
COc1cc(C#N)ccc1OC(=O)c1cccc(S(=O)(=O)N2CCN(C)CC2)c1,-1%
COc1cc2cc[n+](Cc3ccc([N+](=O)[O-])cc3)cc2cc1OC,27%
O=C(O)Cc1ccc(NC(=O)Nc2ccc(Br)cc2)cc1,5%
COc1ccc2c(c1)OC/C(=C/c1ccc(O)c(O)c1)C2=O,?
COC(=O)c1ccccc1NC(=O)N1CCC(N2CCN(Cc3ccc(F)cc3)C(=O)C2=O)CC1,8%
Cc1cc2c(s1)c1cnn(CC(=O)N3CCOCC3)c(=O)c1n2C,-18%
c1ccc(C(CN2CCOCC2)c2ccccc2)cc1,-5%
O=C(CCN1CCN(C/C=C/c2ccccc2)CC1)Nc1ccccc1,1%
COC(=O)c1ccc(NC(=O)CN2CCN(S(=O)(=O)c3ccc(Br)cc3)CC2)cc1,-8%&12%
Cc1ccc(NCc2nnc(SCC(N)=O)n2CC2CCCO2)c(C)c1 (centres undefined),-12%
CCOC(=O)c1c(NC(=O)CS(=O)(=O)c2ccc(C)cc2)sc2c1CCCCC2,7%
NC(=O)C1CCN(C(=O)c2ccc(C(F)(F)F)cc2)CC1,8%
CCOc1ccc(NC(=O)N2CC(C)OC(C)C2)cc1 (centres undefined),-10%
COc1ccc(NS(=O)(=O)c2cc(C(=O)NNC(=O)c3ccncc3)ccc2OC)c(OC)c1,5%
Clc1ccc(Cn2ncc3c(NCc4cccnc4)ncnc32)cc1,10%
CN(CC(=O)NCCC1=CCCCC1)S(=O)(=O)c1ccc2c(c1)c(=O)n(C)c(=O)n2C,-14%
Cc1cc(NS(=O)(=O)c2ccc(NC(=O)CNS(=O)(=O)c3ccccc3)cc2)nc(C)n1,-8%
CC(Oc1ccccc1)C(=O)Nc1oc(-c2ccco2)c(-c2ccco2)c1C#N (centres undefined),-12%
O=C(c1cccc(F)c1)N1CCC[C@@]2(CCN(c3ccccc3)C2)C1,45µM*
COc1ccccc1-c1nnc(NC(=O)C(C)Sc2nncn2C)s1 (centres undefined),-14%
C[C@@H]1CC[C@@]2(O[C@H](CCO)C[C@H](O)[C@H]2O)O1,10%
COc1ccc(C)cc1-n1c(SCC(=O)NC2CC2)nc2ccccc2c1=O,2%
CC(=O)c1ccc(NC(=O)c2cn(C)c(=O)c3ccccc23)cc1,1%
COc1ccccc1-c1nnc(SCC(=O)O)n1C,5%
COc1ccccc1N1CCN(Cc2nc(N)nc(Nc3ccc(C)c(Cl)c3)n2)CC1,1%
CCCc1cc(=O)[nH]c(SCC(=O)Nc2sc(C(N)=O)c(C)c2C(=O)OCCOC)n1,8%
CCN(CC)S(=O)(=O)c1ccc2c(c1)N(CC(=O)NCC(C)c1ccccc1)C(=O)CO2 (centres undefined),-5%
COc1cc(CNC(=O)c2cnc(C)cn2)cc(OC)c1,-8%
COc1cccc(N(CC(=O)NCc2ccccc2)C(=O)CCC(=O)Nc2nccs2)c1,-3%
C[C@H](CO)N1C[C@H](C)[C@@H](CN(C)S(=O)(=O)c2ccc(F)cc2)Oc2c(NS(=O)(=O)c3ccc(F)cc3)cccc2C1=O,-3%
O=C(/C=C/c1ccc(Cl)cc1Cl)N1CCN(c2ccccc2[N+](=O)[O-])CC1,6%
CCOC(=O)c1c(C)[nH]c(C)c1C(=O)COC(=O)c1cccnc1OCC,-9%
Cc1cccc(NC(=S)NC2CC3CCC(C2)N3Cc2ccco2)c1 (centres undefined),-1%
COc1ccc(-n2c(SCC(=O)NCC3CCCO3)nc3c([nH]c4ccccc43)c2=O)cc1OC (centres undefined),15%
CS(=O)(=O)N(Cc1ccccc1)c1ccc(C(=O)NC2CCCCC2O)cc1 (centres undefined),15%
Cc1ccccc1-n1c(C)nnc1SCC(=O)N1CC(=O)Nc2ccccc21,-24%
C=CCCC(=O)N1C[C@H]2CON(C)[C@H]2C[C@H]1c1ccccc1Br,?
COc1ccc(-c2cc(C(=O)NC3CC3)c3ccccc3n2)cc1,22%
CCOc1ccccc1NC(=O)CSc1nnc(-c2ccccn2)n1Cc1ccco1,-6%
CC1SC(=NC(=O)c2ccncc2)NC1=O (centres undefined),-18%
COc1ccc(NC(=S)N2CCN(S(=O)(=O)c3ccccc3)CC2)cc1OC,-10%
COc1nc(Oc2ccc(=O)n(-c3ccccc3)n2)nc(N(C)C)n1,0%
O=C(CC(C(=O)N1CCc2ccccc21)n1ccnc1)NCc1ccccc1 (centres undefined),12%
CC[C@]12c3[nH]c4ccccc4c3CCN1C(=O)C(CC(=O)NCc1ccco1)C[C@@H]2C(=O)N1CCN(C(=O)c2ccco2)CC1 (some centres undefined),-5%
CCOc1ccccc1C1NC(=O)NC(C)=C1C(=O)OCc1ccccc1 (centres undefined),-6%
CCN(C[C@H]1N[C@@](C)(C(=O)OC)[C@H]2C(=O)N(Cc3ccccc3)C(=O)[C@@H]12)C(=O)NC(C)C,-5%
CC(Oc1ccc(C#N)cc1)C(=O)c1ccc(F)c(F)c1 (centres undefined),-2%
Cc1ccc(C(=O)NCCc2ccc(F)cc2)s1,12%
O=C1S/C(=C\C=C\c2ccco2)C(=O)N1c1ccccc1,1%
CCN(CC)S(=O)(=O)c1cccc(C(=O)Nc2cc(C)on2)c1,-8%
CCCCOc1ccc(C2c3c(oc4ccc(C)cc4c3=O)C(=O)N2CCCN(C)C)cc1OCC (centres undefined),-12%
Clc1ccc(/C=C/c2nc(Cl)c(-c3ccc(Cl)cc3)c(Cl)n2)cc1,-6%
CN(C)S(=O)(=O)c1cccc(C(=O)OCC(=O)Nc2sccc2C#N)c1,5%
CC1(C)Cc2ccccc2C2=C(C(=O)N3CCCCCC3)C(=O)C(=O)N21,1%
# (more compounds)
SMILES,VDR inh
O=C(CCn1c(=O)c2sccc2n(CC(=O)OCc2ccccc2)c1=O)NCc1ccco1,2%
O=C(O)C1CCN(C(=O)c2scc3c2OCCO3)CC1,-2%
O=C(NCc1ccccc1)c1nccnc1CO,-12%
Cc1cc(C)n2nc(SCC(=O)Nc3c(C)n(C)n(-c4ccccc4)c3=O)nc2n1,8%

# Screening results: PubChem BioAssay, National Center for Advancing Translational Sciences (NCATS)
